High-throughput results (PubChem BioAssay)
2A Renilla – FMDV 2A StopGo reporter, Renilla signal; Potency, µM (titrated, usually from 57.5 µM), for inactives: at the highest dose signal change, negative = less light; 120,000 compounds, 0.32% hits; HEK cells with a luciferase reporter of 2A StopGo recoding; active means well fitted falling curve with a large enough effect; inconclusive means small, poorly fitted or top-dose-only effect; inactive means no such curve, though single readings can be large or run the other way; note: nearly all actives have a fitted effect of over 55% in size; overnight with compound
2A firefly – FMDV 2A StopGo reporter, firefly signal | HEK cells with a luciferase reporter of 2A StopGo recoding | 120,000 compounds, 0.23% hits | Potency, µM (titrated, usually from 57.5 µM), for the others: at the highest dose signal change, negative = less light | AID 1745856; active = well fitted falling curve with a large enough effect; inconclusive = small, poorly fitted or top-dose-only effect; inactive = no such curve, though single readings can be large or run the other way; note: nearly all actives have a fitted effect of over 60% in size; overnight with compound
The depositor's hits bear a star; u = inconclusive; [ ] = remark or other dose. % is set by controls: 0 for no effect and ±100 for the full control effect; potency is the fitted concentration of half-maximal effect. These rows are one share of the data, so the mix of outcomes need not match the whole.

Each structure is followed by: 2A Renilla	2A firefly
1: CC(C)C(=O)Nc1ccc2oc(-c3cccc(Cl)c3)nc2c1
    6%	4%
2: CCOC(=O)c1oc2ccc(S(=O)(=O)n3nc(-c4ccc(Br)cc4)cc3N)cc2c1C
    -8%	4%
3: Cc1ccccc1-c1cc(C(=O)O)c2ccc(Br)cc2n1
    6%	25%
4: CCOC(=O)c1c(C)[nH]c(C)c1S(=O)(=O)NCC(=O)Nc1ccc(C)c(N(C)C)c1
    29%	u
5: O=C(CNc1cccc(S(=O)(=O)N2CCCCC2)c1)N1CCN(C(=O)c2cccs2)CC1
    2%	-11%
6: CN(Cc1ccco1)S(=O)(=O)c1nnc(NC(=O)c2ccccc2Cl)s1
    38%[activator]	-2%
7: CC(=O)N1CCc2cc(C(=O)C(C)n3nnc(-c4cccc(Cl)c4)n3)ccc21 (stereo not given)
    -4%	1%
8: O=C(Nc1cnc(N2CCC(N3CCCCC3)CC2)c(C(=O)O)c1)c1ccc(Br)cc1
    -18%	-22%
9: COc1ccc(CC(=O)NC(C)C2CC3CCC2C3)cc1 (stereo not given)
    10%	11%
10: CCN(C(=O)c1sc2nc3n(c(=O)c2c1C)CCCC3)c1ccccc1
    -7%	-7%
11: CC(C)Cn1c(=O)c2ccccc2n2c(CCC(=O)Nc3cccc(Cl)c3)nnc12
    -5%	-6%
12: CC1CCN(C(=O)Cn2cc(SCc3ccccc3)c3ccccc32)CC1
    11%	38%[activator]
13: CCc1ccc2oc(C(=O)Nc3cccc4cccnc34)c(C)c2c1
    -7%	1%
14: O=C(CSc1nnc2ccccn12)c1ccc(Cl)cc1
    1%	48%[activator]
15: COc1ccccc1NC(=O)C1=C(C)Nc2c(C(=O)Nc3ccc(C)cc3)cnn2C1c1cccc(OC)c1OC (stereo not given)
    -7%	-14%
16: O=C(Nc1ccc2nc(SCC(=O)N3CCc4ccccc43)sc2c1)c1ccc(Cl)cc1
    -13%	-11%
17: CC1CCN(C(=O)Cn2cc(SCC(=O)Nc3ccccc3)c3ccccc32)CC1
    5%	8%
18: COc1cccc2cc(C(=O)OCC(=O)c3ccccc3)c(=O)oc12
    -3%	4%
19: N#C/C(=C\c1ccc(OC(=O)c2ccccc2)cc1)C(=O)Nc1ccccc1C(F)(F)F
    -11%	17%
20: CCCOc1ccc(C2C(C(=O)c3cc4ccccc4o3)=C(O)C(=O)N2c2cc(C)on2)cc1OC (stereo not given)
    10%	24%
21: COc1ccccc1CNC(=O)Cn1ncc2c(=O)oc3ccc(C)cc3c21
    5%	-1%
22: O=S(=O)(c1cccc(Cl)c1)N1CCN(c2nc(-c3ccccc3)nc3ccccc23)CC1
    17%	32%
23: Cc1csc2nc(-c3cccc(NC(=O)C(C)C)c3)cn12
    -3%	41%[activator]
24: CC(C)c1cccc(NC(=O)c2ccc[n+]([O-])c2)c1
    0%	9%
25: C#Cc1cccc(OCC(C)CN2CCC(C(O)(c3ccccc3)c3ccccc3)CC2)c1 (stereo not given)
    6%	4%
26: CC(=O)c1cccc(NC(=O)CSCc2c(Cl)cccc2Cl)c1
    70%[activator]	57%[activator]
27: O=C(O)CCC(=O)N1N=C(c2cccs2)CC1c1ccc2nccnc2c1 (stereo not given)
    -14%	-6%
28: CCc1ccc(CNCc2c(C(=O)O)c(C)n(Cc3c(F)cccc3Cl)c2C)cc1
    11%	-25%
29: O=Cc1ccc(OCc2ccccc2Cl)cc1
    23%	178%[activator]
30: CCOC(=O)c1cccc(NS(=O)(=O)c2cc(-c3nn(CC)c(=O)c4c3CCCC4)ccc2C)c1
    302%[activator]	20%

Six entries from above, reformatted:
cpd	Compound	2A Renilla	2A firefly
17	CC1CCN(C(=O)Cn2cc(SCC(=O)Nc3ccccc3)c3ccccc32)CC1	5%	8%
18	COc1cccc2cc(C(=O)OCC(=O)c3ccccc3)c(=O)oc12	-3%	4%
19	N#C/C(=C\c1ccc(OC(=O)c2ccccc2)cc1)C(=O)Nc1ccccc1C(F)(F)F	-11%	17%
20	CCCOc1ccc(C2C(C(=O)c3cc4ccccc4o3)=C(O)C(=O)N2c2cc(C)on2)cc1OC (stereo not given)	10%	24%
21	COc1ccccc1CNC(=O)Cn1ncc2c(=O)oc3ccc(C)cc3c21	5%	-1%
22	O=S(=O)(c1cccc(Cl)c1)N1CCN(c2nc(-c3ccccc3)nc3ccccc23)CC1	17%	32%

(cont.)
Each structure is followed by: 2A Renilla	2A firefly
31: CCc1ccc(NC(=O)CSC2=Nc3ccccc3C3=NC(CCC(=O)NCc4ccco4)C(=O)N23)cc1 (stereo not given)
    20%	3%
32: Cc1cccc(C)c1NC(=O)c1n[nH]c(=O)c2ccccc12
    120%[activator]	14%
33: Cc1ccc(OCCC(=O)Nc2cccc3cccnc23)cc1
    25%	48%[activator]
34: CCOC(=O)[C@H](CCc1ccccc1)N[C@@H](C)C(=O)N1CCC[C@H]1C(=O)O
    -10%	-12%
35: Cc1ccc2oc(-c3ccc(C)c(NC(=O)/C=C/c4ccco4)c3)nc2c1
    -6%	117%[activator]
36: O=C(NCCc1ccccc1Cl)c1cc2ccccn2n1
    7%	120%[activator]
37: CCC1CCCCN1C(=O)CSc1nnc(-c2cc(OC)c(OC)c(OC)c2)o1 (stereo not given)
    22%	11%
38: COc1ccc(OCc2ccccc2C#N)c(C(C)=O)c1
    0%	0%
39: CSc1ccc(C(=O)Nc2ccc(-c3nc4ccccc4s3)c(O)c2)cc1
    -11%	7%
40: COc1cc(CN(C(=O)COc2ccc(F)cc2)c2ccccn2)cc(OC)c1OC
    12%	-5%
41: CN1CCN(c2oc(-c3ccco3)nc2S(=O)(=O)c2ccccc2)CC1
    33%[activator]	19%
42: N#Cc1c(C(F)(F)F)cc(-c2cccs2)nc1SCC(=O)Nc1cccc(Br)c1
    1%	-8%
43: CC(OC(=O)c1ccccc1Oc1ccccc1)C(=O)Nc1cccc(C(F)(F)F)c1 (stereo not given)
    -7%[1.06 µM]	3%
44: O=C(O)CC(CC(=O)O)c1ccccn1
    -4%	-8%
45: CCOc1ccccc1C(=O)NC(C(=O)OCc1ccccc1)C(C)C (stereo not given)
    62%[activator]	6%
46: CCCN(CC#N)CC(=O)NC(=O)NC1CC1
    1%	2%
47: Cc1ccc(C(=O)NC2CC2)cc1NC(=O)c1ccc(C)c(S(=O)(=O)N2CCCCC2)c1
    -6%	-20%
48: Cc1cccc(C(=O)NNc2ncnc3c2cnn3-c2ccc(C)c(Cl)c2)c1
    -14%	17%
49: Cc1[nH]c2ccccc2c1C(=O)/C(C#N)=C\c1ccccc1Cl
    3%	-6%
50: COc1ccc(CN(C)c2nc3ccccc3nc2NS(=O)(=O)c2ccccc2)cc1OC
    35%[activator]	42%[activator]
51: CN(C)C(CNC(=O)CCc1ncc(-c2ccc(F)cc2)o1)c1ccco1 (stereo not given)
    -5%	29%
52: COC(=O)c1cnn2c(C)c(Cc3c(C)cc(C)cc3C)c(C)nc12
    -9%	-10%
53: CCc1ccc(NC(=O)Cn2ncc3c(C)n(Cc4cccc(Cl)c4)c(C)c3c2=O)cc1
    -6%	-6%
54: Cc1cc(-c2ccccc2)nc2cc(C(=O)Nc3ccc(Cl)c(Cl)c3)nn12
    -14%	-16%
55: COc1cccc(/C=C(\C#N)C(=O)Nc2ccccc2C(F)(F)F)c1OC
    18%	0%
56: COc1ccc(NC(=O)c2cnc(SC)nc2C)cc1OC
    -6%	3%
57: O=C(Cn1ccccc1=O)Nc1ccc(Br)cc1F
    -3%	0%
58: CCOc1cc(C#N)ccc1OC(C(=O)NC1CC1)c1ccccc1 (stereo not given)
    -1%	6%
59: Cc1nn(-c2ccccc2)c(C)c1CN(C)S(=O)(=O)c1cc(F)cc(F)c1
    2%	3%
60: COc1cccc(N2CCN(C(=O)C3CCCN(S(=O)(=O)c4cccc5nsnc45)C3)CC2)c1 (stereo not given)
    -10%	-14%

Results in sequence from above:
Entries 45 to 50 in 2A Renilla: 62%[activator], 1%, -6%, -14%, 3%, 35%[activator]

Later entries.
Each structure is followed by: 2A Renilla	2A firefly
61: CC(=O)Nc1ccc(CNC2CCCC(C(F)(F)F)C2)cc1 (stereo not given)
    -1%	-3%
62: CCCOc1ccc(C(=O)Nc2sc3c(c2C(=O)OCC)CCCCC3)cc1
    8%	-6%
63: COc1ccc(NC(=O)CCCN2C(=O)C(c3ccccc3)Oc3cccnc32)cc1OC (stereo not given)
    3%	0%
64: Cc1csc2nc(COc3c(Cl)cccc3Cl)cc(=O)n12
    8%	31%[activator]
65: Cc1c(Cl)cccc1-n1ncc(C(=O)N2CCc3ccccc3C2)c1C1CCN(C(=O)OC(C)(C)C)CC1
    7%	-15%
66: CCOC(=O)c1cccc(NC(=O)CC2C(=O)N(c3ccc(C)cc3)C(=O)N2Cc2cccc(OC)c2)c1 (stereo not given)
    -8%	-3%
67: N#Cc1ccccc1CNc1ccccc1I
    19%	0%
68: COc1ccccc1C(=O)Nc1cccc(OCc2cc(=O)n3c4c(sc3n2)CCCC4)c1
    -8%	35%[activator]
69: COc1ccc2c(CCNC(=O)C(C)Sc3nc(Cl)nc4nc[nH]c34)c[nH]c2c1 (stereo not given)
    -6%	-9%
70: CCc1ncc(C(O)c2cccc(OC)c2OC)n1C (stereo not given)
    -10%	2%
71: COc1ccccc1C(=O)Nc1ccc(-c2cc(C(F)(F)F)nn2-c2ccccc2)cc1
    -3%	3%
72: N#Cc1ccc(NCCNC(=O)C2CCCCC2)nc1
    32µM*	u
73: COC(=O)c1ccccc1NC(=O)c1ccc(N2CCCN(Cc3ccccc3F)C2=O)cc1
    13%	-4%
74: COc1ccc(Cl)cc1NC(=O)C(=O)c1c[nH]c2ccccc12
    -1%	28%
75: CSc1ccc(CNC(=O)c2ccc(Nc3cc(-c4ccc(F)cc4)ncn3)cc2)cc1
    -4%	0%
76: Cc1ccc(C2c3[nH]c4ccccc4c3CCN2C(=O)c2ccccc2Br)cc1 (stereo not given)
    -1%	0%
77: Cc1cc2c(cc1C)CSC(c1cc(Br)ccc1O)SC2
    32%[activator]	-26%
78: CCOc1ccc(-n2nc(CO)c(C(=O)NCc3cccs3)n2)cc1
    0%	25%
79: O=C(NC1CCCCCC1)c1ccc(CS(=O)c2cccc(Cl)c2)o1 (stereo not given)
    9%	53%[activator]
80: COc1ccccc1NCc1cccn1-c1nnc(N2CCOCC2)s1
    -10%	60%[activator]
81: COc1ccccc1C1=NN(C(=O)c2cccc(F)c2)C(c2ccc3nccnc3c2)C1 (stereo not given)
    -13%	0%
82: COc1ccc(C2=C(C)C(=NCc3ccc(OC(C)C)cc3)NS2(=O)=O)cc1
    158%[activator]	-20%
83: COc1cc(NC(=O)c2cnc3c(-c4ccc(F)cc4)c(C)nn3c2C)cc(OC)c1
    2%	-20%
84: Cc1c(C(=O)Nc2ccc(F)c(Cl)c2)sc2nc3n(c(=O)c12)CCC3
    -8%	61%[activator]
85: CNC(=O)CNC(=O)c1cccc(Br)c1
    0%	13%
86: CCOc1ccc(C2c3c(oc4ccc(C)cc4c3=O)C(=O)N2CCCN(C)C)cc1OC (stereo not given)
    -12%	-11%
87: COc1ccc(-c2cc(-c3ccccc3)c(C#N)c(SCC(O)CS(=O)(=O)Cc3ccc(Cl)cc3)n2)cc1 (stereo not given)
    -12%	-11%
88: COCCNC(=O)COC(=O)CCc1c[nH]c2ccccc12
    -14%	-9%
89: Cc1cc(C(=O)COc2ncnc3ccc(Br)cc23)c(C)n1C
    -11%	-4%
90: COc1ccccc1CNC(=O)c1sc2nc3n(c(=O)c2c1C)CCC3
    -3%	0%

Reprinted at random: 2 records from the list.
Each structure is followed by: 2A Renilla	2A firefly
78: CCOc1ccc(-n2nc(CO)c(C(=O)NCc3cccs3)n2)cc1
    0%	25%
1: CC(C)C(=O)Nc1ccc2oc(-c3cccc(Cl)c3)nc2c1
    6%	4%

The results go on.
Each structure is followed by: 2A Renilla	2A firefly
91: O=C(CS(=O)(=O)c1cccc2nsnc12)N1CCN(c2ccccc2)CC1
    4%	7%
92: CN(CC(=O)NC(N)=O)Cc1ccc(F)cc1F
    2%	-5%
93: CN(C)CCCN(C(=O)c1cccc(C(F)(F)F)c1)c1nc2ccc(F)cc2s1
    -3%	29%
94: COc1ccc(Cl)cc1Nc1cc(C)nc2nc(-c3ccccc3C)nn12
    7%	-6%
95: COc1ccc2c(C)c(CC(=O)Nc3ccc4c(c3)OCO4)c(=O)oc2c1OC
    -14%	111%[activator]
96: COc1ccc(-n2c(-c3ccco3)nc3c(cnn3-c3ccc(Cl)cc3)c2=O)cc1
    -9%	-3%
97: CC1(C)CC(CCN2CCCCC2)(c2cccc(C(F)(F)F)c2)CCO1 (stereo not given)
    -10%	-2%
98: O=C(CCc1ncc(-c2ccccc2F)o1)Nc1cccc(Br)c1
    4%	11%
99: COCCn1c(SC(C)c2ccc(F)cc2)nnc1-c1ccncc1 (stereo not given)
    -7%	1%
100: O=C(c1cc2ccccc2o1)c1ccc(F)cc1F
    0%	0%
101: O=C(CNc1ccccc1C(=O)Nc1ccccc1)Nc1ccccc1C(=O)NC1CCCC1
    8%	-3%
102: Cc1cc2n(n1)CC(CNC1CCN(Cc3ccccc3)CC1)CN2 (stereo not given)
    -15%	-17%
103: Cc1oc2ncn(CC(C)C)c(=O)c2c1C(=O)N1CCN(c2cccc(C(F)(F)F)c2)CC1
    5%	3%
104: O=C(NCC1CCCO1)c1ccc(CSc2nc3cccnc3n2Cc2ccccc2)cc1 (stereo not given)
    17%	8%
105: Clc1ccc(/C=N/N=C(c2ccccc2)c2ccccc2)c(Cl)c1
    3%	4%
106: CC(=O)c1ccc(OCc2ccc(-c3ccccc3C#N)cc2)cc1
    2%[1.06 µM]	u
